Source: PubChem BioAssay
SARS PLpro yeast: qHTS of Yeast-based Assay for SARS-CoV PLP; Potency, µM (highest dose often 32.9 µM), inactives show top-dose activity, positive = growth rescue; hit rate 0.19% among 330,000; S. cerevisiae expressing SARS-CoV PLpro, growth rescue; control for the full effect not named in the record; also: 0% is about no effect; nearly all actives have a fitted effect of over 55% in size; growth read by luminescence after 48 h
StopGo reporter: High Throughput Screening for Foot and Mouth Disease Virus Antivirals; Potency, µM (highest dose often 57.9 µM), without a hit: at the top dose signal change, negative = less light; human cells with a luciferase reporter of 2A StopGo recoding; control for the full effect not named in the record; hit rate 1.2% among 410,000; active = well fitted falling curve with a large enough effect; inconclusive = small, poorly fitted or top-dose-only effect; inactive = no such curve, though single readings can be large or run the other way; tested in HEK293T cells; also: % is scaled to controls: 0 for no effect and ±100 for the full control effect; nearly all actives have a fitted effect of over 45% in size; luciferase light after 4 h
Cruzain inh Det: qHTS Assay for Promiscuous and Specific Inhibitors of Cruzain (with detergent); purified cruzain, Z-FR-AMC fluorescence, 0.01% Triton; Potency, µM, inactives show max response, negative = inhibition, actives largely listed as inhibitors; hit rate 0.43% among 200,000; active = well fitted curve in the direction sought with a large enough effect; inconclusive = small, poorly fitted or top-dose-only effect, or another doubt; inactive = no such curve, though single readings can be large; an effect the other way counts as inactive or inconclusive;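 also: plate controls were neutral wells for no effect and buffer without enzyme for full effect; nearly all actives have a fitted effect of over 40% in size; top concentration of the series not given in the record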
Target sequence (P25779 123-467 limits assumed): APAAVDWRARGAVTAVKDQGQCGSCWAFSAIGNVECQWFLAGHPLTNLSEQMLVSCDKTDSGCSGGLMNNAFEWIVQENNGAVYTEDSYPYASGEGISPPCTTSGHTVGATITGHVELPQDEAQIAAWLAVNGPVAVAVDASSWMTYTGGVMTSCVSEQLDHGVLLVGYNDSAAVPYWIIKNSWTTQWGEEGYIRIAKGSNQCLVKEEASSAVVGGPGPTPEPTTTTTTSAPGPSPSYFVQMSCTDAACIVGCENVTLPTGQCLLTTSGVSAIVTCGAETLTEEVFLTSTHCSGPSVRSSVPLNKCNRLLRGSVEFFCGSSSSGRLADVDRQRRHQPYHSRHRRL
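Detergent-containing run (0.01% Triton X-100) in acetate buffer pH 5.5 with 5 mM DTT: enzyme at 1.5 nM final, 15 min compound preincubation at room temperature, then 2 uM Z-FR-AMC substrate. Activity taken as 60 s fluorescence increase at 360/450 nm.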
NS1 inh: qHTS Assay for Inhibitors of Influenza NS1 Protein Function; Potency, µM (titrated, usually from 46.1 µM), for inactives: at the highest dose activity, positive = more growth; S. cerevisiae slowed by influenza A NS1, growth recovery by OD600; hit rate 0.4% among 270,000; also: actives are rising curves; nearly all actives have a fitted effect of over 50% in size
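OD600 was taken as the measure of yeast growth restored by compound in an NS1-expressing S. cerevisiae strain. Cells had been washed out of glucose medium and diluted 1:100 into galactose -URA medium, pH 6.0.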
RE007 growth inh: qHTS Assay for Inhibitors of the HIV-1 protein Vpr; S. pombe RE007 Vpr strain, BacTiter-Glo ATP luminescence, 24 h; control for the full effect not named in the record; Potency, µM (highest dose often 92.2 µM), for inactives: at the highest dose activity change, negative = less growth; hit rate 0.21% among 360,000; active = well fitted falling curve with a large enough effect; inconclusive = small, poorly fitted or top-dose-only effect; inactive = no such curve, though single readings can be large or run the other way;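 also: % is scaled to controls: 0 for no effect and ±100 for the full control effect; nearly all actives have a fitted effect of over 50% in size; the assay follows cell death caused by Vpr and the record does not say whether a fall means rescue or toxicity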
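Fission yeast strain RE007, carrying one chromosomally integrated HIV-1 vpr copy, was seeded at OD 0.01 in PMG+AL medium with 23 nL pinned compound. After 24 h at 30 °C and 99% humidity, viability was read by BacTiter-Glo luminescence.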
MARV entry inh: qHTS for inhibitors of binding or entry into cells for Marburg Virus | Marburg virus pseudotyped entry inhibition, cell reporter; control for the full effect not named in the record; about a third of the inactives were read at about 46 µM | Potency, µM (series often up to 37.8 µM), for the others: at the top dose activity change, negative = inhibition, actives largely listed as inhibitors | hit rate 1.8% among 300,000 | AID 540276, 2011; active = well fitted inhibition curve with a large enough effect; inconclusive = small, poorly fitted or top-dose-only effect, or effect the other way; inactive = flat fitted curve, though single readings scatter; tested in HEK293 cells; about a fifth of its hits are not listed in these tables; also: % is scaled to controls: 0 for no effect and ±100 for the full control effect; luciferase read-out
Lassa entry inh: qHTS for Inhibitors of binding or entry into cells for Lassa Virus; Lassa virus pseudotype entry inhibition, cell reporter; control for the full effect not named in the record; Potency, µM (top dose mostly 37.9 µM), without a hit: at the highest dose activity change, negative = inhibition, most hits filed as inhibitors; hit rate 1.2% among 300,000; active means well fitted inhibition curve with a large enough effect; inconclusive means small, poorly fitted or top-dose-only effect, or effect the other way; inactive means flat fitted curve, though single readings scatter; tested in HEK293 cells; also: % is scaled to controls: 0 for no effect and ±100 for the full control effect; nearly all actives have a fitted effect of over 50% in size; luciferase read-out
Cruzain noTriton: qHTS Assay for Promiscuous and Specific Inhibitors of Cruzain (without detergent); purified cruzain, Z-FR-AMC fluorescence, no detergent; Potency, µM, for the others: max response, negative = inhibition, hits mostly inhibitors; hit rate 2.3% among 200,000; active = well fitted curve in the direction sought with a large enough effect; inconclusive = small, poorly fitted or top-dose-only effect, or another doubt; inactive = no such curve, though single readings can be large; an effect the other way counts as inactive or inconclusive;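 also: plate controls were enzyme without inhibitor for no effect and buffer without enzyme for full effect; nearly all actives have a fitted effect of over 40% in size; top concentration of the series not given in the record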
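Detergent-free condition (0.00005% Triton X-100) in acetate buffer pH 5.5 with DTT. 1.5 nM enzyme and compound were pre-mixed 15 min, then 2 uM Z-FR-AMC substrate added; reaction progress from fluorescence change between first and third reads (60 s).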
* marks the source's active call; other numbers are inactive results; ? = inconclusive; nt = not tested or not shown; [ ] = another dose, or the depositor's remark. Unless noted, calls follow the shape of the dose curve; as a rule, active means well fitted rising curve with a large enough effect; inconclusive means small, poorly fitted or top-dose-only effect; inactive means no such curve, though single readings can be large or run the other way. Potency is read from the fitted curve at half-maximal effect.

mol | SARS PLpro yeast | StopGo reporter | Cruzain inh Det | NS1 inh | RE007 growth inh | MARV entry inh | Lassa entry inh | Cruzain noTriton
CNC(=O)COC(=O)/C=C/c1cn(-c2ccccc2)nc1-c1ccc(C)o1 | 0% | -24% | nt | 3% | 17% | 6%[46.1 µM] | 11% | nt
CSCCC(NC(=O)c1ccccc1)C(=O)N1CC=C(c2ccccc2)CC1 (stereo not given) | 0% | 9% | nt | -15% | -2% | ? | 11µM* | nt
O=S(=O)(c1cccs1)N1CCN(c2ccccc2Cl)CC1 | nt | -1% | nt | nt | 1% | 4% | -30% | nt
Cc1ccc(N2CC(C(=O)OCC(=O)Nc3cccc(Cl)c3C)CC2=O)cc1 (stereo not given) | 2% | -23% | nt | nt | -11% | ? | 2%[46.1 µM] | nt
Nc1nc(NCCCN2CCOCC2)nc(Nc2cccc(Cl)c2)c1[N+](=O)[O-] | 0% | ? | nt | 1% | -5% | ? | ? | nt
Cc1ccc(NC(=O)CCCn2c(=O)c3cccn3c3ccccc32)c(C)c1 | nt | -22% | -7.1% | nt | nt | nt | -6%[46.1 µM] | 4%
CCOC(=O)CON1C(=O)c2ccccc2C1=O | -2% | -12% | 4.1% | 13% | 5% | 15% | 2% | 0%
CCCNC(=O)CN1C(=O)NC(CC)(c2ccc(F)cc2)C1=O (stereo not given) | 3% | 3% | nt | -3% | -8% | 5%[46.1 µM] | -2%[46.1 µM] | nt
O=c1[nH]c(=O)c2[nH]c(=O)n(-c3ccccc3)c2[nH]1 | nt | -2% | nt | nt | -2% | 4%[46.1 µM] | -2%[46.1 µM] | nt
Cc1cccc(S(=O)(=O)Nc2nc3ccccc3nc2NCc2ccco2)c1 | 0% | 19% | -8.1% | -93% | -8% | 7% | ? | -19%
Cc1nc2ccccc2c(=O)n1NC(=O)c1c(O)c2c(n(CC(C)C)c1=O)CCCC2 | -88% | -25% | -9.5% | -121% | -7% | ? | 4% | -3%
COC(=O)N/N=C/c1sc(N2CCCCC2)nc1-c1cccs1 | -2% | 0% | nt | nt | -11% | 1% | -13% | nt
Cc1cccc(N(CC(=O)NC2CCCCC2)C(=O)CCC(=O)Nc2ccccn2)c1 | -1% | nt | 1.4% | 0% | nt | 8% | nt | 5%
O=C(CCNc1ccc(Cc2ccncc2)cc1)c1ccc([N+](=O)[O-])cc1 | -5% | 1% | nt | -49% | ? | ? | -25% | nt
Cc1oncc1C(=O)NC(C)C | 4% | 17% | 6.2% | 14% | 10% | 17%[46.1 µM] | -18% | -9%
COc1ccc(OC)c(-c2csc(NC(=O)CSc3nnnn3C)n2)c1 | -8% | -16% | nt | nt | -15% | 0% | -15% | nt
CC(OC(=O)CCc1nc2ccccc2c(=O)[nH]1)C(=O)NCc1ccc2c(c1)OCO2 (stereo not given) | -8% | 28% | 0.8% | 0% | -1% | 0% | 5% | 8%
CC(=O)Nc1ccc(NC(=O)CN2CCN(c3ccccn3)CC2)cc1 | 1% | 1% | nt | 0% | -15% | 8% | -7% | nt
COc1cccc(C(=O)NNC2=CC(=O)CC(C)(C)C2)c1 | -2% | 11% | 1.0% | -15% | -5% | 6% | -5% | -2%
CCc1nnc(NC(=O)CCS(=O)(=O)Cc2ccccc2)s1 | 0% | -2% | nt | 8% | 1% | 2%[46.1 µM] | -4% | nt
COc1ccc(S(=O)(=O)N2CCc3ccccc32)cc1C(=O)N1CCC(C)CC1 | 2% | 17% | nt | nt | -8% | -25%[46.1 µM] | ? | nt
CCOC(=O)C1=C(N)Oc2cc(O)ccc2C1c1ccc([N+](=O)[O-])cc1 (stereo not given) | -3% | ? | nt | 3% | 14% | ? | ? | nt
CCc1ccccc1N(C(=O)c1snc(C(N)=O)c1N)C(C(=O)NCC1CCCO1)c1c[nH]c2ccccc12 (stereo not given) | 0% | -2% | nt | 0% | 9% | ? | ? | nt
Cn1c(=O)oc2cc(S(=O)(=O)Nc3cccc4c3CCCC4)ccc21 | -2% | 9% | -3.4% | -46% | -23% | 0% | -4% | -7%
NC(=O)Nn1c(CCC(=O)O)ccc1-c1ccc(Cl)cc1 | 0% | -14% | nt | -60% | -18% | 11%[46.1 µM] | 19% | nt
O=C(O)c1ccc(N2CCCC2=O)cc1 | 4% | 12% | 8.5% | ? | 2% | 24%[46.1 µM] | ? | -2%
COC(=O)CSc1nc2cc3c(cc2cc1C)OCO3 | -2% | -15% | nt | 6% | -3% | -9% | -1% | nt
O=Cc1ccc(-c2ccc([N+](=O)[O-])cc2Cl)o1 | -11% | -15% | nt | nt | -15% | 2%[46.1 µM] | 2% | nt
Cc1cccc(NC(=O)C2CCCN2C(=O)Oc2ccccc2)c1C (stereo not given) | 22% | -9% | 2.6% | 0% | -10% | -2%[46.1 µM] | 1% | 8%
O=C(NCc1ccccc1)C1CCN(S(=O)(=O)c2ccc(Cl)cc2)CC1 | -1% | -18% | nt | -2% | 2% | -2%[46.1 µM] | nt | nt
CCCCCCn1c(=O)c(C(=O)N/N=C/c2cccc(F)c2)c(O)c2ccccc21 | 0% | -20% | nt | nt | 2% | -1%[46.1 µM] | 16%[46.1 µM] | nt
O=C(O)CN1CCOCCOCCN(CC(=O)O)CCOCCOCC1 | -1% | nt | 4.6% | ? | nt | -5% | nt | 3%
COc1ccc(CC(=O)Nc2cc(Cl)ccc2C(=O)O)cc1 | 1% | 5% | nt | 5% | 15% | nt | nt | nt
CCOC(=O)C1=CC(=O)CC(C)(C)O1 | nt | -16% | nt | nt | -5% | 2% | 3% | nt
CN(C)C(=O)c1ccc(S(=O)(=O)NCc2ccc(Cl)cc2)s1 | nt | -14% | 0.5% | nt | nt | nt | ? | -6%
COc1ccc(NC(C)=O)cc1NC(C)C(=O)Nc1ccc(F)cc1 (stereo not given) | 3% | 0% | 5.9% | 5% | 2% | 2% | 11% | 2%

Ordered by SMILES length (descending): 6 of the compounds above
mol | SARS PLpro yeast | StopGo reporter | Cruzain inh Det | NS1 inh | RE007 growth inh | MARV entry inh | Lassa entry inh | Cruzain noTriton
CCCCCCn1c(=O)c(C(=O)N/N=C/c2cccc(F)c2)c(O)c2ccccc21 | 0% | -20% | nt | nt | 2% | -1%[46.1 µM] | 16%[46.1 µM] | nt
CN(C)C(=O)c1ccc(S(=O)(=O)NCc2ccc(Cl)cc2)s1 | nt | -14% | 0.5% | nt | nt | nt | ? | -6%
COc1ccc(NC(C)=O)cc1NC(C)C(=O)Nc1ccc(F)cc1 (stereo not given) | 3% | 0% | 5.9% | 5% | 2% | 2% | 11% | 2%
Cc1cccc(NC(=O)C2CCCN2C(=O)Oc2ccccc2)c1C (stereo not given) | 22% | -9% | 2.6% | 0% | -10% | -2%[46.1 µM] | 1% | 8%
NC(=O)Nn1c(CCC(=O)O)ccc1-c1ccc(Cl)cc1 | 0% | -14% | nt | -60% | -18% | 11%[46.1 µM] | 19% | nt
CCOC(=O)C1=CC(=O)CC(C)(C)O1 | nt | -16% | nt | nt | -5% | 2% | 3% | nt

(cont.)
mol | SARS PLpro yeast | StopGo reporter | Cruzain inh Det | NS1 inh | RE007 growth inh | MARV entry inh | Lassa entry inh | Cruzain noTriton
O=C(CCN1N=C(c2ccccc2)CCC1=O)NC1CCCC1 | -3% | -10% | nt | 0% | -21% | nt | nt | nt
O=C(Nc1c(-c2ccccc2)nc2sccn12)c1ccccc1 | 2% | 3% | -0.5% | 7% | -4% | -10% | 0% | -5%
COCCn1c(Cc2ccccc2)nnc1SCC(=O)NC(C)(C)C | 1% | 22% | 0.7% | 0% | 11% | 2% | -24%[14.3 µM] | 0%
Cc1ccc(CS(=O)(=O)CCC(=O)NCc2ccccc2Cl)cc1 | 14% | 13% | nt | ? | 7% | nt | nt | nt
Cc1ccc(C(=O)N/C(=C/c2cccs2)C(=O)NCC2CCCO2)cc1 (stereo not given) | 0% | -10% | nt | -1% | 20% | 1%[46.1 µM] | -7% | nt
Cc1sc(NC(=S)NC(=O)C(C)(C)C)c(C(N)=O)c1C | -4% | 0% | -0.7% | 12% | -1% | ? | -7% | -15%
CC(C)c1ccc(NS(=O)(=O)c2ccc3[nH]cc(C(=O)NC4CCCC4)c(=O)c3c2)cc1 | nt | 13% | -14% | nt | nt | 0%[46.1 µM] | 22%[46.1 µM] | ?
Cc1ccc(S(=O)(=O)N2CCN(C(=O)CC(C)n3nc(C)c(Cl)c3C)CC2)cc1C (stereo not given) | 0% | -29% | nt | -6% | -15% | nt | nt | nt
COCCCN1C(=O)C(=O)/C(=C(/O)c2ccc(S(=O)(=O)N3CCOCC3)cc2)C1c1ccc(F)cc1 (stereo not given) | -3% | -9% | nt | 2% | 7% | -7%[46.1 µM] | 4%[46.1 µM] | nt
COc1ccccc1NC(=O)C1=C(C)Nc2ncnn2C1c1ccccc1C (stereo not given) | 1% | -4% | 2.8% | 3% | 13% | -11% | 0% | 2%
O=C(c1csc(Nc2ccccc2Cl)n1)N1CCCC1 | -14% | 46%[activator] | -0.5% | -43% | 4% | ? | -6% | -2%
CCCCNC(=O)/C=C/c1cccs1 | 10% | 33%[activator] | -4.6% | 7% | -70% | ? | ? | -8%
O=C1CS/C(=N/N=C2CCCC2)N1 | 2% | -5% | nt | nt | -9% | 12%[46.1 µM] | 2% | nt
Cc1cc(NC(=O)COc2cccc(C)c2C)no1 | -4% | 31%[activator] | 4.5% | 0% | 3% | nt | nt | -23%
CCOC(=O)c1c(S(=O)(=O)NCC(=O)N2CCN(c3ccc(OC)cc3)CC2)c(C)n(C)c1C | 3% | 37%[activator] | nt | -1% | 11% | nt | nt | nt
CCOc1ccc(-n2c(SCC(N)=O)nnc2-c2cccnc2)cc1 | -1% | -7% | nt | -1% | 0% | -9% | 5% | nt
